# Arbovirus inh: arbovirus infection inhibition; arbovirus infection cell-based antiviral screen; inhibition, % at 10 µM; 200,000 tested, 0.37% active;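 active = inhibition from about 30%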;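 note: bluetongue infection of BSR cells; cell survival read as ATP light after 72 h; 0% = infected wells without compound and 100% = uninfected wells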
# RecA splice inh: inhibitors of M. tuberculosis RecA intein splicing; AID 2221; P9WHJ3; inhibition, %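 (about 9 µM by stock and volumes)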; 290,000 tested, 0.75% active; cell-free RecA intein splicing, fluorescence; in the data active = inhibition above about 30%; inconclusive = no clear call, values can overlap the other calls;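 note: 0% = vehicle wells and 100% = reference inhibitor control wells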
# Target sequence (P9WHJ3 whole entry, looked up, canonical isoform): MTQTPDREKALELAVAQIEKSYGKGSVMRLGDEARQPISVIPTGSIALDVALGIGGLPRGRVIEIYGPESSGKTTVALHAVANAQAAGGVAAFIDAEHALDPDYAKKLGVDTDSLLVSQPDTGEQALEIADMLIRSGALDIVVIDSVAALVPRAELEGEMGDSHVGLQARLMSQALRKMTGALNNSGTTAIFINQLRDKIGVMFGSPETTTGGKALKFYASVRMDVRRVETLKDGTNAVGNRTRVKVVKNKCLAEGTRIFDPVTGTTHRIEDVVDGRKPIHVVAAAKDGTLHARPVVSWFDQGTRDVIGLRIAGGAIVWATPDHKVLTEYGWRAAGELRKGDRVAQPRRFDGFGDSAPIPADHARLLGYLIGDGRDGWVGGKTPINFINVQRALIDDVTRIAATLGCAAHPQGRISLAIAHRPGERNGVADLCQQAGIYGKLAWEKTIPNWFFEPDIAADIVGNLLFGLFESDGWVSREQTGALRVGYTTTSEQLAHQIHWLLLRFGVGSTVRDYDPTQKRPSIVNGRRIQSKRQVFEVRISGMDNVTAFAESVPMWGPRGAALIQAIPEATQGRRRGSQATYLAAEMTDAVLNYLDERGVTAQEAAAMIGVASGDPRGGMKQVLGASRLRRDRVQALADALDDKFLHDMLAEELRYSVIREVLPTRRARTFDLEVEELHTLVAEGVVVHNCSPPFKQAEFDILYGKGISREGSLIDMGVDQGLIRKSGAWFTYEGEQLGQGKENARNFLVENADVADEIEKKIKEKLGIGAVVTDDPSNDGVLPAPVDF
# Mtb bLac sens: beta-lactam sensitization of Mtb H37Rv. M. tuberculosis H37Rv growth with meropenem, percent inhibition; hits of this screen are not shown here. inhibition, % at 25 µM. 330,000 tested, 0.27% active;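 active = about 74% or more and at least 40 points above the plate without the antibiotic, then above 30% in a dose series; inconclusive = first-round hits that could not be retested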;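 note: growth measured after seven days incubation then overnight dye step; 0% = bacteria only wells and 100% = bacteria with antibiotic; twin plates without the antibiotic show which effects depend on it; some results filed as inactive read as strong as hits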
# YopH PTP inh: inhibitors of Yersinia enterocolitica YopH tyrosine phosphatase; fluorescence Ex485/Em525; inhibition, %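 (about 10 µM by stock and volumes)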; AID 898; 140,000 tested, 0.16% active;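 active = inhibition of 50% or more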;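 note: controls were vehicle for no effect and minimum signal wells for full effect; inactives centre near -20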
# Mtb H37Rv: M. tuberculosis H37Rv growth inhibitors, H37Rv strain (AID 1626); M. tuberculosis H37Rv growth inhibition; higher % means a stronger effect; inhibition, % at 10 µM; hits with a dose series show IC50 in µM; 220,000 tested, 0.95% active;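 active = confirmed in a dose series; inconclusive = inhibition above 80% but not taken into the dose series; inactive = below 80% or under 30% at every dose of the series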;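 note: bacteria incubated seven days before Alamar blue readout; 0% = bacteria only wells and 100% = bacteria with antibiotic wells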
# Arbovirus inh repeat: further read-out of Arbovirus inh, marked with its call; inhibition, %; measured here: 10K subset replicate screen; many hits read low in the repeat;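 first of two repeat runs on a subset; 0% = infected and 100% = uninfected wells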
# * = called active by the depositor; ? = inconclusive; . = not tested or not shown; & = joins results of further samples.
# Sample of the layout (five entries):
SMILES,Arbovirus inh,RecA splice inh,Mtb bLac sens,YopH PTP inh,Mtb H37Rv,others
CCN(Cc1ccccc1)S(=O)(=O)c1ccc(C(=O)N(CCCN(C)C)c2nc3cc4c(cc3s2)OCCO4)cc1,.,6.6,49,.,.,
COc1nc(OC)nc(N2CCC(C(=O)NCC3CCCCC3)CC2)n1,6,.,-5,-21,-1%,
CN(C)S(=O)(=O)c1cccc(C(=O)OCC(=O)NCc2ccc3c(c2)OCO3)c1,11,-4.8,-4,.,3%,
COc1ccccc1CNC(=O)C/C(C)=N/NC(=O)Cc1ccc(OC)c(OC)c1,-4,2.7,6,-28,0%,
CC1CCN(C(=O)CSc2nnc(-c3cc4ccccc4cc3O)n2Cc2ccco2)CC1,8,2.9,3,-41,-4%,

# All compounds of this part, from the first entry:
SMILES,Arbovirus inh,RecA splice inh,Mtb bLac sens,YopH PTP inh,Mtb H37Rv,others
CCN(Cc1ccccc1)S(=O)(=O)c1ccc(C(=O)N(CCCN(C)C)c2nc3cc4c(cc3s2)OCCO4)cc1,.,6.6,49,.,.,
COc1nc(OC)nc(N2CCC(C(=O)NCC3CCCCC3)CC2)n1,6,.,-5,-21,-1%,
CN(C)S(=O)(=O)c1cccc(C(=O)OCC(=O)NCc2ccc3c(c2)OCO3)c1,11,-4.8,-4,.,3%,
COc1ccccc1CNC(=O)C/C(C)=N/NC(=O)Cc1ccc(OC)c(OC)c1,-4,2.7,6,-28,0%,
CC1CCN(C(=O)CSc2nnc(-c3cc4ccccc4cc3O)n2Cc2ccco2)CC1,8,2.9,3,-41,-4%,
CC1CCc2[nH]c3ccc(C(=O)N(C)CC(=O)Nc4ccc(F)cc4)cc3c2C1 (centres undefined),.,-3.1,-8,.,.,
COc1cccc(C(=O)NNC(=O)c2cccnc2)c1,.,-0.3,0,.,.,
CN(C)C=NC(=O)c1cn(-c2ccc(F)cc2)c(=O)c2ccccc12,7,-1.0,-2,.,0%,
COc1ccc(-n2c(Cc3cccn3C)nnc2SCC(=O)Nc2ccc(C)cc2C)cc1,10,7.9,3,-24,-3%,
Cc1nn(-c2ccccc2)c(Cl)c1/C=N/O,-1,-0.5,83,-17,>100µM*,
COC(=O)C1=C(N)Oc2c(c(=O)oc3ccccc23)[C@]12C(=O)N(C)c1ccccc12,3,1.8,-4,-42,-4%,
Cc1cccc(N2CCN(C(=O)C3CC(=O)N(C4CCCC4)C3)CC2)c1C (centres undefined),.,2.4,-12,.,.,
O=C(CCNS(=O)(=O)c1ccc(Cl)cc1)N1CCN(Cc2ccccc2)CC1,-2,-1.2,5,-24,2%,
Cc1csc(SCC(=O)Nc2oc(C)c3c(C)n[nH]c(=O)c23)n1,.,-1.4,-4,.,.,
Cc1ccc(S(=O)(=O)N2CC3CCCC2C3)cc1 (centres undefined),.,0.0,53,.,0%,
Cc1ccnc(NCc2c(O)ccc3ccccc23)c1,.,-5.4,-14,.,.,
CN(CCc1ccccn1)C(=O)CCNC(=O)Cn1cnc2ccccc2c1=O,9,-1.3,-9,32,-13%,
O=C(/C=C/c1ccc(Cl)cc1)Nc1ccc(N2CCOCC2)cc1,-10,-2.3,-1,.,-1%,
CCN(CC)C(=O)C1CCN(Cc2ccc(OCc3ccccc3)c(OC)c2)CC1,.,0.0,-5,.,.,
Cn1c(SCc2ccccc2Br)nc2ccccc2c1=O,.,-1.3,1,.,.,
CCC(=O)Nc1c2c(nc3c1CCC3)CCCC2,1,2.5,-11,-13,5%,
O=C1CN(C(=O)COc2c(F)c(F)cc(F)c2F)c2ccccc2N1,.,-2.1,2,.,.,
O=C(NC1CCCCCC1)C1CC(=O)N(Cc2ccccc2)C1 (centres undefined),0,4.1,-5,-30,-3%,
CCOc1ccc2nc(SCC(=O)NC3CCCc4ccccc43)sc2c1 (centres undefined),11,0.0,9,-21,1%,

# Five entries picked at random from those above:
SMILES,Arbovirus inh,RecA splice inh,Mtb bLac sens,YopH PTP inh,Mtb H37Rv,others
O=C1CN(C(=O)COc2c(F)c(F)cc(F)c2F)c2ccccc2N1,.,-2.1,2,.,.,
O=C(/C=C/c1ccc(Cl)cc1)Nc1ccc(N2CCOCC2)cc1,-10,-2.3,-1,.,-1%,
Cc1ccnc(NCc2c(O)ccc3ccccc23)c1,.,-5.4,-14,.,.,
CCOc1ccc2nc(SCC(=O)NC3CCCc4ccccc43)sc2c1 (centres undefined),11,0.0,9,-21,1%,
O=C(CCNS(=O)(=O)c1ccc(Cl)cc1)N1CCN(Cc2ccccc2)CC1,-2,-1.2,5,-24,2%,

# The listing continues:
SMILES,Arbovirus inh,RecA splice inh,Mtb bLac sens,YopH PTP inh,Mtb H37Rv,others
CC(=O)c1ccc(Nc2nc(NCCO)nc(OC(C(F)(F)F)C(F)(F)F)n2)cc1,-17,0.5,18,-25,2%,
COc1ccc(NC(=O)Nc2ccc3c(c2)CCC3)cc1OC,5,-1.7,0,.,1%,
COC(=O)C1C2CCC(C2)C1C(=O)OCC(=O)c1ccccc1 (centres undefined),-2,-4.5,-5,-25,-2%,
C=CCN(C(=O)CCC(=O)Nc1cc(C)on1)C(C(=O)NC(C)(C)C)c1ccc(OC)cc1 (centres undefined),.,-1.3,2,.,.,
COc1ccccc1N(C(=O)NCc1ccccc1)C1=NCC(C)S1 (centres undefined),-8,-0.1,8,4,11%,Arbovirus inh repeat=-13
Cn1c(SCC(O)c2ccccc2)nnc1-c1ccc2ccccc2c1 (centres undefined),.,2.5,-4,.,-8%,
CC(C)Oc1ccc(CNC(=O)CCCN2C(=O)C(c3ccccc3)Oc3cccnc32)cc1 (centres undefined),.,0.7,-2,.,.,
O=c1[nH]c2cc3c(cc2cc1C(c1nnnn1C1CCCC1)N1CCSCC1)OCCO3 (centres undefined),-23,-0.5,-9,-16,.,
COc1ccccc1-c1ccc(/C=C2\C=CC(=O)O2)o1,.,-0.1,1,.,4%,
Cc1cccc(-c2noc(-c3ccoc3C)n2)c1,-3,-0.5,-3,.,8%,
COc1ccc(CN(C)C2c3ccccc3-c3ccccc32)cc1,-10,-0.3,-4,-4,8%,
Cc1onc(C(=O)Nc2cccnc2Cl)c1[N+](=O)[O-],8,1.4,1,.,-6%,
OCCC1CN(Cc2ccc3c(c2)CCO3)CCN1C1CCCC1 (centres undefined),0,-0.1,1,.,3%,
O=C(Nc1cccc(Br)c1)c1cc(S(=O)(=O)N2CCOCC2)cs1,.,-1.4,?,.,.,
O=C(c1ccco1)N1CCN(c2ccc([N+](=O)[O-])cc2Cl)CC1,.,2.1,-8,.,5%,
CCC(C)Nc1nc(N)c([N+](=O)[O-])c(NCCO)n1 (centres undefined),.,0.7,-6,.,2%,
Cc1c[nH]c2cccc(OCC(CNC(C)(C)C)OC(=O)c3ccccc3)c12 (centres undefined),.,-1.6,?,.,.,
COc1ccc(C2=NN(C(C)=O)CC2c2cccc([N+](=O)[O-])c2)cc1 (centres undefined),.,-0.3,4,.,.,
CCN(CC)P(=O)(NC(=O)C(Cl)(Cl)Cl)N(CC)CC.[Cl-].[Cl-].[Cl-].[Nd+3],3,-0.7,4,-23,-1%,
CCOC(=O)c1sc2ncn(/N=C/c3ccc(O)c(OC)c3)c(=O)c2c1C,-3,10,60,.,0%,
COC(=O)c1ccc(C(=O)OC)c(NC(=S)N2CCN(C)CC2)c1,12,0.3,-1,.,-5%,
Cc1ccc(S(=O)(=O)N2c3ccccc3OCC2c2ccccc2)cc1 (centres undefined),0,-0.7,?,-22,-8%,
Cn1cc(Cl)cc(C(=O)Nc2ccccc2)c1=O,.,-2.0,?,.,.,
CC(=O)Nc1cccc(OCC(=O)NCCC2=CCCCC2)c1,0,0.4,-11,.,-7%,

# Part of the list above in order of SMILES length, highest first:
SMILES,Arbovirus inh,RecA splice inh,Mtb bLac sens,YopH PTP inh,Mtb H37Rv,others
O=C(CCNS(=O)(=O)c1ccc(Cl)cc1)N1CCN(Cc2ccccc2)CC1,-2,-1.2,5,-24,2%,
CCN(CC)C(=O)C1CCN(Cc2ccc(OCc3ccccc3)c(OC)c2)CC1,.,0.0,-5,.,.,
COc1ccccc1-c1ccc(/C=C2\C=CC(=O)O2)o1,.,-0.1,1,.,4%,

# (next part)
SMILES,Arbovirus inh,RecA splice inh,Mtb bLac sens,YopH PTP inh,Mtb H37Rv,others
N#Cc1c(N)n[nH]c1-c1cc2c([nH]1)CCCC2,6,0.0,5,-25,-8%,
Cc1nc(C)c(NC(=O)OC(C)C)cc1NC(=O)OC(C)C,10,0.1,5,.,-5%,
COc1cc(CC(=O)OCC(=O)N2CCCCC2C)cc(OC)c1OC (centres undefined),.,0.7,0,.,.,
O=C(Nc1nc2ccc([N+](=O)[O-])cc2s1)c1ccncc1,.,.,2,.,2%,
CCCCNCc1ccc(SC)cc1,-1,2.7,-3,-24,-2%,
Cc1ccc(NC(=O)N/C=C/c2ccco2)cc1C,7,1.6,4,-9,-5%,
COc1cc2c(cc1OC)C(C)N(S(=O)(=O)c1cn(C)cn1)CC2 (centres undefined),.,3.0,-10,.,-10%,
O=S(=O)(N/N=C/c1cccc(OC2CSC2)c1)c1ccccc1,-15,1.3,0,-20,3%,
CCN(CC)C(=O)CC(c1ccc(OC)cc1)c1c(OC)cc(OC)c2ccc(=O)oc12 (centres undefined),.,0.7,-2,.,-2%,
CCN(CC(=O)NCc1ccccn1)S(=O)(=O)c1ccc(OC)cc1,.,0.6,-3,.,.,
COc1ccc(CN2C(=O)c3cccnc3C2=O)cc1S(=O)(=O)N1CCOc2ccccc21,.,-0.7,?,.,.,
COc1ccc(Cl)cc1C(=O)C1CCCN(Cc2cnc(N3CCOCC3)s2)C1 (centres undefined),12,3.6,3,.,0%,
CC(=O)Nc1ccc(OC(=O)Cc2ccc(Cl)cc2)cc1,.,0.4,-4,.,.,
Cc1oc(-c2cccs2)nc1CN1CC[C@@](O)(c2ccccc2)[C@H]2CCCC[C@@H]21,3,.,-1,.,6%,
CC1CC(Nc2ccccc2)=CC(=O)O1 (centres undefined),2,-3.0,-8,-21,1%,
c1ccc(-c2nc3c(ccc4ccccc43)[nH]2)nc1,-2,3.8,97,-15,?,
O=C(NCC(O)c1ccccc1)c1ccccc1 (centres undefined),.,1.2,-10,.,-4%,
O=C(NC1CCCCC1)C(c1ccccc1F)N(Cc1ccco1)C(=O)c1ccccn1 (centres undefined),.,1.9,-3,.,.,
O=C(CSc1nc2nccnc2c(=O)n1Cc1cccs1)Nc1ccccc1,.,2.5,-1,.,.,
O=C(CCCc1ccccc1)NCc1ccc2c(c1)OCO2,.,2.0,-3,.,.,
CSCCC(NC(=O)COc1ccccc1)C(=O)NCCOc1ccc(C)cc1 (centres undefined),.,-1.8,2,.,.,
O=C(COC(=O)[C@@H]1CCCN1S(=O)(=O)c1ccccc1F)Nc1ccc(OC(F)F)cc1,2,2.2,0,.,0%,
CCOC(=O)c1cc(-c2ccccc2)sc1NC(=O)COC,-11,12,7,.,8%,
COC(=O)c1c(C)nn(-c2ccccc2)c1-n1cccc1,7,1.8,0,-25,-8%,
COc1ccc(C(CC(=O)c2ccc(C)cc2)C(C#N)C#N)cc1OC (centres undefined),-11,54*,7,-7,3%,
COc1ccc(C)cc1NC(=O)CC(NC(C)=O)c1ccccc1 (centres undefined),9,0.2,0,.,10%,
COc1ccc(Br)cc1/C=N/NC(=O)c1ccco1,0,0.2,0,.,-2%,
O=c1c2ccccc2nc(/C=C/c2c[nH]c3ccccc23)n1-c1ccc([N+](=O)[O-])cc1,-17,1.2,-3,-22,-1%,
O=C(C1CCCN(S(=O)(=O)c2cccc3nsnc23)C1)N1CC=C(c2ccccc2)CC1 (centres undefined),4,.,-1,-6,6%,
Cc1ccccc1NC(=O)C(=O)NNC(=O)COc1ccc2ccccc2c1,.,0.2,43,.,.,
O=[N+]([O-])c1ccc(/C=N/Nc2nc(N3CCCCC3)nc(N3CCCCC3)n2)o1,-17,9.4,100,1,?,
O=[N+]([O-])c1ccc(SCCc2ccncc2)cc1,.,-5.0&0.3,-6&3,.,7%&-7%,
Cc1cc(C)cc(N(C(C)C(=O)NC2CCCC2)S(C)(=O)=O)c1 (centres undefined),-3,0.9,-5,-22,-4%,
CC1(C)CC2CC(C)(CN2C(=O)COC(=O)c2ccc(Cl)c(N)c2)C1 (centres undefined),7,7.3,0,-3,-9%,
CCC(=O)c1c[nH]c(C(=O)NCCCn2ccnc2)c1,8,-1.3,-5,-15,-5%,

# Screening results deposited in PubChem by several laboratories.

# An excerpt; rates above refer to the full screens.
